VDR inh = vitamin D3 receptor (human) inhibition; VDR-SRC2-3 peptide fluorescence polarization, 2 h; AID 504847; actives 0.93% (n = 400,000); Potency, µM, inactives show max response, negative = inhibition, hits mostly inhibitors; P11473; active = well fitted inhibition curve with a large enough effect; inconclusive = small, poorly fitted or top-dose-only effect, or another doubt; inactive = no such curve, though single readings can be large or run the other way; note: series mostly up to about 120 µM
Target sequence (P11473 whole entry, looked up): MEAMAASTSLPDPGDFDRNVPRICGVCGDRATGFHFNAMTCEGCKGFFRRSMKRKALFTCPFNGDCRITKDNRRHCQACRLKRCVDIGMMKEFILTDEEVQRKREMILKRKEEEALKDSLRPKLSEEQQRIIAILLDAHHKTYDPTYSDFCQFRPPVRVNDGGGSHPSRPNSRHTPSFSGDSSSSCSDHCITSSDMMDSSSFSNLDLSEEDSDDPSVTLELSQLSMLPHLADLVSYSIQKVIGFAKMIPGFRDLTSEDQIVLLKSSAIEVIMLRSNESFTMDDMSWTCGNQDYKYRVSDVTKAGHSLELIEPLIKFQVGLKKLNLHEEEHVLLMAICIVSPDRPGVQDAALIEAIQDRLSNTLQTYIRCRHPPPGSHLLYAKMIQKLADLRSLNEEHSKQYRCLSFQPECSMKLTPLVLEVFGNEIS
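Fluorescence polarization assay measuring small-molecule disruption of VDR binding to the coregulator peptide SRC2-3. Compounds were pin-transferred (23 nl) into the reagent mix and incubated 2 h at room temperature before reading.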
* = called active by the depositor; u = inconclusive; & = joins results of further samples. % is set by controls: 0 for no effect and ±100 for the full control effect; potency is the fitted concentration of half-maximal effect.

VDR inh	canonical_smiles
-11%	Nc1ccn(Cc2cccc(F)c2)n1
-16%	CCCCNC(=O)C(=O)NCCCn1ccnc1
8%	C=CCn1c(SCC(=O)Nc2ncc(Cc3ccc(Br)cc3)s2)nnc1-c1ccncc1
3%	CSC1=N/C(=C/c2cccnc2)C(=O)N1Cc1ccc(Cl)cc1
-11%&0%	CCSc1nc2ccccc2[nH]1
u	CCN(CC)c1ccc(NC(=O)c2ccccc2F)cc1S(=O)(=O)Nc1ccccc1OC
5%	CCCCOC(=O)C1[C@H]2C(=O)N(CCc3ccccc3)C[C@]23C=C[C@H]1O3 (stereo partly drawn)
6%	O=C(CCC1CCN(C(=O)c2cccc(Cl)c2F)CC1)Nc1ccccc1
19%	CCOC(=O)C1(Cc2cccc(OC)c2)CCCN(C(=O)CSC)C1 (stereo not drawn)
7%	c1ccc(-c2csc(Nc3nc(N4CCOCC4)nc(N4CCOCC4)n3)n2)cc1
9%	O=C(NCc1ccc2c(c1)OCO2)C(=O)Nc1ccccc1
21%	O=C(Nc1ccc(-c2nc3ccc(NC(=O)c4cccs4)cc3[nH]2)cc1)c1cccs1
-24%	COc1ccccc1C(=O)C1CCCN(C(=O)CN2CCCCC2=O)C1 (stereo not drawn)
-3%	COc1ccc(C(C#N)N2N=C(C)CC2c2ccccc2)cc1OC (stereo not drawn)
-16%	O=C(c1ccco1)N1CCN(C(=O)c2cc(-c3ccccn3)nc3ccccc23)CC1
-13%	CCOC(=O)N1CCN(C(=O)CSc2ccc(C(=O)OC)cc2[N+](=O)[O-])CC1
0%	CCO[C@@H]1OC(C(=O)O)=C[C@H](c2ccc(Br)cc2)[C@H]1CCCO
3%	COc1cccc(C(=O)Nc2cccc(C(=O)OCc3cc(=O)n4nc(C(C)C)sc4n3)c2)c1
-15%	Cc1ccnc(NC(=O)CC(c2ccccc2)c2ccccc2)n1
6%	Fc1ccc(-c2noc3ncnc(NC4CCCCC4)c23)cc1
-25%	OCCC1CN(C2CCN(c3ccccc3F)CC2)CCN1Cc1ccccc1 (stereo not drawn)
8%	COc1ccc2c(Cl)c(-c3nnc(SCC(=O)c4ccccc4)n3C)sc2c1
1%	CCOC(=O)c1nc(NCCc2ccccc2)sc1C
u	COc1ccc(/C=N/c2c(-c3ccco3)nc3ccccn23)cc1OC
0%	CCc1ccc(NC(=O)CS(=O)CC(=O)Nc2ccc(N3CCOCC3)cc2)cc1 (stereo not drawn)
-13%	CC(C)=CC1C=C(C)C(C)C2C(=O)NNC(=O)C12 (stereo not drawn)
u	CN(C)CCCn1cc(C2=C(c3c[nH]c4ccccc34)C(=O)NC2=O)c2ccccc21
-3%	CC(Oc1ccc2c3c(c(=O)oc2c1)CCCC3)C(=O)NCC1CCC(C(=O)O)CC1 (stereo not drawn)
11%	Cc1cc(=O)[nH]c(SCc2nc3ccccc3n2Cc2ccccc2)n1
-6%	O=C(COC(=O)Cc1ccccc1F)NC(=O)NC1CCCC1
-5%	CC(=O)NC(c1ccc(Cl)cc1)c1ccc2cccnc2c1O (stereo not drawn)
-11%	CCC(=O)Nc1ccc(NC(=O)c2c(C)nc3ccccn23)cc1
-2%	CCn1c(=O)c(C(=O)NCc2cccnc2)c(O)c2ccccc21
-2%	O=C(NCC(c1cccs1)S(=O)(=O)c1cccs1)c1ccc(C(F)(F)F)cc1 (stereo not drawn)
2%	COc1ccc2oc(=O)c(C(=O)NCc3ccccc3)cc2c1
1%	O=C(COC(=O)c1cnccn1)c1cccc([N+](=O)[O-])c1
-21%	CCCCCc1ccc(-c2ccc(/C=C/C(N)=O)cc2)nc1
7%	COc1ccc(S(=O)(=O)c2nnn(-c3cccc(OC)c3)c2N)cc1
-13%	COCCn1c(C)cc(C2=NNC(=NC(C)(C)C)SC2)c1C
-11%	Cc1sc2ncnc(N3CCC(C(=O)Nc4nc(-c5cccs5)cs4)CC3)c2c1C
20%	O=C(CCC1COc2ccccc2O1)Nc1ccc(Cl)cn1 (stereo not drawn)
-4%	COc1cccc(-c2nc(CS(=O)(=O)CC(=O)NC3CCCc4ccccc43)c(C)o2)c1 (stereo not drawn)
-13%	C=CCOC(=O)N1CCC2CC1c1cc(-c3cccc(C)c3)ccc12 (stereo not drawn)
-2%	COc1cc(NC(=O)CCCOc2ccc(Cl)cc2Cl)c(C(=O)O)cc1OC
1%	COc1cccc(C(=O)NCC(=O)OCC(=O)c2ccccc2)c1
-3%	COc1ccc(C(=O)Nc2ccc(OCC(=O)N3CCOCC3)cc2)c(OC)c1OC
3%	CCN(CC)c1cccc(OCC(=O)N2c3ccccc3CC2C)c1 (stereo not drawn)
-8%	CCOc1ccc(C(=O)Nc2ccc3oc(-c4ccc5ccccc5c4)nc3c2)cc1
-15%	CCCCN1C(=O)C(=O)N(CC(=O)Nc2cc(Cl)ccc2OC)C1=O
-5%	CCOc1ccc(NC(=O)C2CC(=O)N(CCc3ccc(OC)c(OC)c3)C2)cc1OCC (stereo not drawn)
20%	Cc1cccc([N+](=O)[O-])c1NC(=O)COC(=O)C1CC2CCCC(C1)C2=O (stereo not drawn)
0%	CC1(C)C(Cl)C(=O)C(C(=O)c2ccccc2)C(=O)C1Cl (stereo not drawn)
-27%	CC(=O)c1ccc(NC(=O)C(C)Sc2n[nH]c(-c3cccnc3)n2)cc1 (stereo not drawn)
-5%	Cc1ccc(CCN2C(Nc3ccccc3)=NC[C@@H]2C)cc1
1%	COc1ccccc1OCCn1c(SCC(=O)O)nc2ccccc21
16%	Cc1csc(NC(=O)CSc2nsc(SCC(=O)Nc3nc(C)cs3)c2C#N)n1
2%	COc1cccc(CC(=O)NCCCSc2ccccc2)c1
-14%	O=c1[nH]c2ccccc2nc1/C=C(\O)c1cccs1
5%	C/C(CC(=O)Nc1cccc(F)c1)=N\NC(=O)c1ccncc1
2%	CC(C)(C)C(=O)COc1ccccc1[N+](=O)[O-]

Further results follow:
VDR inh	canonical_smiles
11%	Cc1nc2ccc(NC(=O)c3ccc(=O)[nH]c3)cc2s1
1%	Cc1ccc(SCC(=O)Nc2ccc(-c3nnc(-c4ccco4)o3)cc2)cc1
11%	O=C(c1cccnc1)N1CCN(C(=O)c2ccco2)CC1
-5%	CCN(C(=O)CN1CCN(c2cccc(Cl)c2)CC1)c1c(N)n(Cc2ccccc2)c(=O)[nH]c1=O
12%	Cc1[nH]c(C)c(S(=O)(=O)NCCc2ccccc2)c1C(=O)N1CCCC1
10%	COc1ccc(N2C(=O)CCC(C(=O)O)C2c2ccc(F)cc2)cc1 (stereo not drawn)
-11%	COc1ccc(Nc2nc(-c3ccccc3)nc3ccccc23)cc1S(=O)(=O)N1CCOCC1
-5%	CN(C)/N=C/c1c(O)ccc2ccccc12
-30%	O=C(COc1ccc(Cl)cc1Cl)Nc1ccccc1F
-1%	CC(=O)N1CCc2cc(S(=O)(=O)NC(CC(C)C)C(=O)N3CCc4ccccc4C3)ccc21 (stereo not drawn)
-20%	Cc1ccccc1N=C1NC(=O)C(CO)(CO)S1
2%	CCOc1ccc(Nc2c(S(=O)(=O)c3ccccc3)cnc3ccc(F)cc23)cc1
u	O=C(O)c1sccc1Oc1ccc(NS(=O)(=O)c2ccc(Cl)cc2)cc1
-2%	O=C(C1CCC(CNc2c(N3CCOCC3)c(=O)c2=O)CC1)N1CCN(c2ccccc2)CC1 (stereo not drawn)
-1%	Cc1ccc(OCCNC(=O)/C=C/c2ccccc2)cc1

Arranged by SMILES length (low to high): 3 of the compounds above.
VDR inh	canonical_smiles
-20%	Cc1ccccc1N=C1NC(=O)C(CO)(CO)S1
u	O=C(O)c1sccc1Oc1ccc(NS(=O)(=O)c2ccc(Cl)cc2)cc1
-11%	COc1ccc(Nc2nc(-c3ccccc3)nc3ccccc23)cc1S(=O)(=O)N1CCOCC1

New compounds follow:
VDR inh	canonical_smiles
9%	CCOc1cc(-c2nc(-c3ccc(OC)cc3)no2)cc(OCC)c1OCC
u	CCc1ccc([C@@H]2CC=C(C(=O)O)[C@H](c3ccc(Br)cc3)N2S(=O)(=O)c2ccc(C)cc2)cc1
-22%	Cc1cc(C)n(C(=O)c2cc([N+](=O)[O-])cc([N+](=O)[O-])c2)n1
-10%	COc1ccccc1OCCn1c(=O)sc2ccccc21
0%	CCOC(=O)Cc1csc(SCn2nnc3ccccc3c2=O)n1
7%	O=C(CNC(=O)c1ccc(Br)o1)OCc1ccc(Br)cc1
18%	C=CCN(c1ccc(Cl)cc1)S(=O)(=O)c1cccc(C(=O)O)c1
7%	CCOC(=O)C1CCN(C(=O)COc2cccc3ccccc23)CC1
-14%	Cc1ccc(NC2CCCN(C(=O)CCn3nccc3C)C2)cc1C (stereo not drawn)
79µM*	COc1cc(/C=C(\C#N)C(=O)NC2CCCCC2C)ccc1OS(=O)(=O)c1ccc(C)cc1 (stereo not drawn)
13%	COCCCNC(=O)C[C@H]1C[C@H](C(=O)N(C(C)C)C(C)C)[C@@]2(C)c3[nH]c4cc(CCC(=O)N(C)C)ccc4c3CCN2C1=O
-6%	CC(C)CCN1C(Nc2ccccc2)=NC[C@@H]1Cc1ccccc1
-16%	CCOC(=O)c1nnn(-c2nonc2N)c1COc1ccccc1
-22%	O=S(=O)(NCC(c1ccc2c(c1)OCO2)N1CCOCC1)c1ccccc1 (stereo not drawn)
19%	O=c1[nH]c2ccc(Cl)cc2c(O)c1Cc1ccccc1
u	CCNS(=O)(=O)c1ccc(-c2ccc(-n3cnnn3)cc2)cc1
6%	COc1ccccc1C(=O)NNC(=O)c1ccc(Cl)cc1
5%	CN1C(=O)CC(Sc2ncccc2C(=O)O)C1=O (stereo not drawn)
2%	Cc1ccccc1OCc1nnc(SCC(=O)Nc2ccc(N3CCOCC3)cc2)n1C
-7%	Clc1ccc(N2CCN(Cc3nnc(-c4ccc5c(c4)OCO5)o3)CC2)cc1
1%	Cc1ccc(N2C(=O)CSC2c2cccnc2)cc1F (stereo not drawn)
-7%	CC(C)CCN1CCN(Cc2ccoc2)CC1CCO (stereo not drawn)
11%	O=C(NCCN1CCOCC1)c1csc2c1CCCCC2
8%	COc1cccc(NC(=O)COC(=O)C2=NN(c3ccccc3)C(=O)CC2)c1
5%	COc1ccc(CCNC(=O)CCS(=O)(=O)c2ccc3c(c2)CCN3C(C)=O)cc1OC
3%	Cn1c(N)c(C(=O)COC(=O)C2CCCC2)c(=O)n(C)c1=O
-11%	O=C1NC[C@H](Cc2ccccc2)N(C[C@H]2CCCN2C[C@H](Cc2ccccc2)N2C[C@H](Cc3ccccc3)N(CC3CCCCC3)C(=O)C2=O)C1=O
16%	COc1ccc(CCC(=O)Nc2nc3c(s2)CN(C)CC3)cc1OC
15%	COc1cc(Cl)c(C)cc1NC(=O)c1c(C)oc2nc(C)nc(N3CCCC3)c12
28%	Cc1cccc(N(C(=O)c2csnn2)C(C(=O)NC(C)(C)C)c2ccncc2)c1 (stereo not drawn)
-17%	O=C(COC(=O)CCc1nc2ccccc2n1-c1ccccc1)Nc1cccc(Cl)c1
11%	Cc1ccc(C)c(Cn2c3ccccc3c3cnn(CC(=O)NC4CCCCCC4)c(=O)c32)c1
2%	O=S(=O)(c1ccccc1)N1CCc2ccccc21
-1%	Cc1ccc(CC(=O)Nc2ccc(F)c([N+](=O)[O-])c2)cc1C
-28%	O=C(NC1CCCC1)c1cc(=O)[nH]c2ccccc12
-8%	Cc1nc(N2CCOCC2)nc(OCCN2CCOCC2)c1[N+](=O)[O-]
-14%	COC(OC)c1nc(SCC(=O)Nc2cccc(Cl)c2)ncc1C(=O)O
4%	CCN(CC)c1ccc(C(=O)NNC(=O)c2cccn2C)cc1
-2%	O=C(OCCOc1cccc(Cl)c1)c1cc(S(=O)(=O)N2CCCCC2)ccc1N1CCOCC1
-2%	CSCCC(NC(=O)OCc1ccccc1)C(=O)O (stereo not drawn)
-22%	Cc1ccc(NC(=O)C2Oc3ccccc3OC2C)cc1 (stereo not drawn)
-9%	CC(C)c1ccc(N(C(=O)c2ccc3c(c2)OCO3)C2C=CS(=O)(=O)C2)cc1 (stereo not drawn)
-11%	O=C(COC(=O)/C=C/c1ccccc1)Nc1cccnc1Cl
5%	O=C(Cn1ccc2cc(S(=O)(=O)N3CCCCC3)ccc21)NCc1cccc(Cl)c1
u	COC(=O)C1C(O)=C(C(C)=N)C(=O)CC1(C)C (stereo not drawn)
u	O=C(Nc1nc(-c2ccc(S(=O)(=O)N3CCOCC3)cc2)cs1)c1ccccc1
3%	O=C(Cc1ccc(Cl)cc1)N1CCN(C(=O)c2ccco2)CC1
-12%	CCOc1ncccc1C(=O)Nc1cc(S(=O)(=O)N2CCCCC2)ccc1Cl

Among those listed so far, 14 contain an aryl thioether with sulfur outside any ring.
VDR inh	canonical_smiles
8%	C=CCn1c(SCC(=O)Nc2ncc(Cc3ccc(Br)cc3)s2)nnc1-c1ccncc1
-11%&0%	CCSc1nc2ccccc2[nH]1
-13%	CCOC(=O)N1CCN(C(=O)CSc2ccc(C(=O)OC)cc2[N+](=O)[O-])CC1
8%	COc1ccc2c(Cl)c(-c3nnc(SCC(=O)c4ccccc4)n3C)sc2c1
11%	Cc1cc(=O)[nH]c(SCc2nc3ccccc3n2Cc2ccccc2)n1
-27%	CC(=O)c1ccc(NC(=O)C(C)Sc2n[nH]c(-c3cccnc3)n2)cc1 (stereo not drawn)
1%	COc1ccccc1OCCn1c(SCC(=O)O)nc2ccccc21
16%	Cc1csc(NC(=O)CSc2nsc(SCC(=O)Nc3nc(C)cs3)c2C#N)n1
2%	COc1cccc(CC(=O)NCCCSc2ccccc2)c1
1%	Cc1ccc(SCC(=O)Nc2ccc(-c3nnc(-c4ccco4)o3)cc2)cc1
0%	CCOC(=O)Cc1csc(SCn2nnc3ccccc3c2=O)n1
5%	CN1C(=O)CC(Sc2ncccc2C(=O)O)C1=O (stereo not drawn)
2%	Cc1ccccc1OCc1nnc(SCC(=O)Nc2ccc(N3CCOCC3)cc2)n1C
-14%	COC(OC)c1nc(SCC(=O)Nc2cccc(Cl)c2)ncc1C(=O)O

From PubChem

Not all compounds are listed; count on the stated rates, not on these rows.
